# Compound activity deposited in PubChem by National Center for Advancing Translational Sciences (NCATS).
# D2 potentiator: human D2 receptor positive allosteric modulation | P14416 | DiscoveRx D2 beta-arrestin cells, luminescence, 90 min; 100% = 57 uM dopamine signal | potentiation, % (no concentration beside the values) | 360,000 tested, 0.23% active; active = potentiation of 50% or more; inconclusive = 30% to 50%; inactive = 30% or less;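 also: compound concentration not given in the record; tested on top of an EC20 dose of dopamine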
#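 PathHunter beta-arrestin assay in DiscoveRx D2 cells. Compounds were added with an EC20 of dopamine (50 nM final) for 90 min at 37 deg C. Luminescence was read 1 h after detection reagent, with 57 uM dopamine as the EC100 control.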
# CtBP-E1A inh: blocks the CtBP interaction with E1A; AlphaScreen GST-E1A/His-CtBP binding, 1536-well; hits give low values; control for the full effect not named in the record; 340,000 tested, 0.49% active; activity change, % (no concentration beside the values); in the data active means activity change below about -65%; inconclusive means about -30% to -65%; inactive means above about -30%; also: % is scaled to controls: 0 for no effect and ±100 for the full control effect; compound concentration not given in the record
#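 Homogeneous bead-based format: GST-tagged E1A captured on glutathione donor beads, His-tagged CtBP on nickel acceptor beads; compounds precede bead addition by 2 h at 37 °C.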
# TRPV1 PAM: potentiators of human vanilloid receptor 1 (TRPV1); TRPV1-expressing cells, Fluo-8 calcium influx, capsaicin EC20 potentiation; host cell line not named in the record; control for the full effect not named in the record; AID 540277; potentiation, % at 8.33 µM; Q8NER1; 320,000 tested, 0.02% active; active means potentiation above 80%; inconclusive means 30% to 80%; inactive means below 30%; also: 0% is about no effect
# Target sequence (Q8NER1 whole entry, looked up): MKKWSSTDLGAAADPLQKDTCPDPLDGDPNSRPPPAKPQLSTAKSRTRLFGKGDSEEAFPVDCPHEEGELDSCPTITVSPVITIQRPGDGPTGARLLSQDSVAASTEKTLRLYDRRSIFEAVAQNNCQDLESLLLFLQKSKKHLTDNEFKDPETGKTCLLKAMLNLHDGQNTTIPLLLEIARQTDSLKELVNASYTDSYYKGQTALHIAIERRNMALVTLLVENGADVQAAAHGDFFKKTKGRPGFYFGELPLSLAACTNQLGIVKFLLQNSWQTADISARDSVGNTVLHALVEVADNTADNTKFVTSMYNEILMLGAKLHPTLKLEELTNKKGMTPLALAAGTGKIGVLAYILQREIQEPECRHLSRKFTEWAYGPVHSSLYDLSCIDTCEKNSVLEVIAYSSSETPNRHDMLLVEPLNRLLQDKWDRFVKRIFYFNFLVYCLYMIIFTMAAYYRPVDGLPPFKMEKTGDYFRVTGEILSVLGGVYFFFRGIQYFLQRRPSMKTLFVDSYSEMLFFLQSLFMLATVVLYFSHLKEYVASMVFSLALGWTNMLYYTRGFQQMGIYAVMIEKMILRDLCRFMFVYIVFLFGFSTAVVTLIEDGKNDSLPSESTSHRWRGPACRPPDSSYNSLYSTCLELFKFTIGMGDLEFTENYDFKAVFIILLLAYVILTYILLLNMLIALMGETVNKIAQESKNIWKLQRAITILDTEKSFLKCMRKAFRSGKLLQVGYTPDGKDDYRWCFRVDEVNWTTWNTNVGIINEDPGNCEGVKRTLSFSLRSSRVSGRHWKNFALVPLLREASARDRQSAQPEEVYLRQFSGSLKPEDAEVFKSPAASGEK
#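 Cells expressing TRPV1 were dye-loaded with Fluo-8 and read kinetically: 10 s baseline, 3 min after compound (agonist portion), then 2 min after EC20 capsaicin (allosteric enhancer portion). Calcium-bound dye fluorescence at 480/520 nm.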
# Six1-Eya2 blk: blocks human Six1 binding to Eya2. Q15475+O00167. AlphaScreen GST-Six1/His-Eya2 binding, biochemical; hits give low values; control for the full effect not named in the record. activity change, % (concentration not given with the values). 360,000 tested, 0.56% active; in the data active = activity change below about -65%; inconclusive = about -30% to -65%; inactive = above about -30%; also: % is scaled to controls: 0 for no effect and ±100 for the full control effect
#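 Six1/Eya2 binding was read as AlphaScreen signal after compounds were pinned into GST-Six1 plus His-tagged Eya2 (5X stock 250/500 nM) in pH 8.0 Tris/NaCl/TCEP buffer, beads added, then incubated 1 h, 37 C, dark.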
# TRPML1 inh: inhibitors of human TRPML1 channel; TRPML1-inducible cells, Ca2+ dye fluorescence, FDSS; hits give low values; inhibition of EC80 agonist-evoked calcium signal; 390,000 tested, 0.02% active; activity change, negative = inhibition, % (concentration not given with the values); Q9GZU1; AID 624415; in the data active means activity change below about -50%; inconclusive means about -30% to -50%; inactive means above about -30%;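 also: stimulus is agonist 54-4 at its EC80 concentration; % is scaled to controls: 0 for no effect and ±100 for the full control effect; compound concentration not given in the record; the text of the record puts the active cut at -80%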
#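 Tet-induced TRPML1-DL cells loaded with Ca8 no-wash calcium dye were read kinetically on FDSS. Compound addition was followed by EC80 agonist 54-4 (4 uM final); inhibition was read over 110 s.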
# TRPML1 ag: agonists of human TRPML1 channel; TRPML1-expressing cells, Ca2+ dye fluorescence, FDSS; host cell line not named in the record; reference of the full effect not given here; activation, % (concentration not given with the values); 410,000 tested, 0.12% active; AID 624414; in the data active = activation above about 50%; inconclusive = about 30% to 50%; inactive = below about 30%; also: 0% is about no effect; the text of the record puts the active cut at 80%
#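 In this qHTS format, compounds were pin-transferred onto Ca8-dye-loaded TRPML1-DL cells induced with Tet overnight, and intracellular Ca2+ fluorescence was recorded kinetically for 110 s after a 10 s baseline. A subsequent 4uM final 54-4 (EC80) addition followed by a second 110 s read served as the antagonist phase.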
# * hit, by the source's call; u = inconclusive; x = not tested or not shown; & = joins results of further samples.
SMILES,D2 potentiator,CtBP-E1A inh,TRPV1 PAM,Six1-Eya2 blk,TRPML1 inh,TRPML1 ag
O=c1c(-c2cccc(Cl)c2)c[nH]n1-c1ccccc1,-6.0,4.9,9.8,-1.3,-12.8,-1.8
CCOc1ccc(CN(C)C(=O)CCc2ccc(S(=O)(=O)N3CCCCCC3)cc2)cc1,2.4,0.0,-0.9,-1.1,70.4,4.2
Cc1ccc(N(CCC#N)C(=O)COC(=O)c2ccccc2SCC(=O)N2CCCC2)cc1,-9.5,5.9,16.6,1.2,-3.9,-0.2
CC(=O)c1c(C)[nH]c(C(=O)Nc2ccc(Cl)c(S(=O)(=O)N3CCOCC3)c2)c1C,-3.6,-14.3,22.7,-20.1,-3.5,0.0
Cc1csc(NC(=O)CSc2nc3sc(C)c(C)c3c(=O)[nH]2)n1,-16.5,-15.3,24.6,-7.7,37.4,1.0
COc1ccc(N(CC(=O)N2CCOCC2)S(=O)(=O)c2ccccc2)cc1Cl,-28.8,8.2,11.2,6.0,-2.4,0.1
CCOc1ccc2[nH]c(=O)c(CN(CCc3ccccc3)C(=O)N3CCOCC3)cc2c1,9.4,-17.0,11.5,1.6,30.7,-0.1
O=C(COC(=O)Cc1ccsc1)NCC12CC3CC(CC(C3)C1)C2,-6.7,4.8,-18.7,8.2,-2.9,-0.7
O=C(NCc1cccnc1)c1ccc(COc2ccccc2Cl)cc1,-12.9,x,-10.3,-2.5,-19.4,1.6
CC(C)(C)NC(=O)Cn1nc(C(F)(F)F)c2c1CCCC2,-7.2,4.7,25.2,0.4,11.4,-0.9
CCOc1ccc(/C=N/NC(=O)c2ccccc2Cl)cc1CN1CC2CC(C1)c1cccc(=O)n1C2 (configuration not stated),-19.4,-8.1,4.2,-2.8,13.2,0.3
O=S(=O)(c1cccc(Br)c1)N1CCN(c2ncnc3scc(-c4ccccc4)c23)CC1,-2.4,x,x,0.4,-1.8,-0.4
COc1ccc2[nH]c3c(c2c1)CCN1C(=O)N([C@@H](C)C(=O)NC2CCCC2)C(=O)[C@]31C,-22.4,-7.2,3.7,-5.0,x,x
O=C(NNc1ccc([N+](=O)[O-])cc1)C1CC2CCCC(C1)C2=O (configuration not stated),-11.8,-2.0,5.9,-1.1,16.9,0.6
Fc1ccc2cnc(-c3ccccc3F)cc2c1,-5.8,16.9,x,26.2,-5.4,0.8
Cc1n[nH]c(C)c1CCCCOc1ccccc1,-8.1,-1.8,0.4,-4.9,-9.3,-0.7
CCN=c1scc(-c2ccco2)n1/N=C/c1ccc(O)cc1,-5.5,-8.9,4.5,-13.3,7.4,0.0
Cc1ccn2cc(C(=O)NC3CCN(Cc4ccccc4)CC3)nc2c1,-37.5,11.0,6.1,-2.0,-19.1,-0.2
CC1CCc2c(C(=O)NCCCN3CCOCC3)csc2C1 (configuration not stated),-5.7,9.0,-3.6,0.8,12.0,0.1
Cc1ccc(NC(=O)CCNC(=O)Nc2ccccc2)cc1S(=O)(=O)N(C)C,-5.2,-4.0,-1.4,5.9,5.6,0.3
CC(CCc1ccccc1)NC(=O)C1CCN(c2nnc(-n3cccc3)s2)CC1 (configuration not stated),-3.5,-0.8,-5.3,-3.4,5.2,-1.3
CCCn1nc(NC(=O)c2ccco2)c2cc3ccccc3nc21,6.5,1.0,-17.4,24.0,13.7,5.1
CC/C(=N\NC(=O)CSc1ncccn1)c1ccc2c(c1)OCCO2,-12.5,0.2,2.0,8.9,26.4,-0.6
COc1ccc(NC(C)=O)cc1NC(C)C(=O)Nc1ccccc1F (configuration not stated),-2.6,-0.2,21.3,4.3,18.3,-0.9
COc1ccc(C2(CNC(=O)c3cccs3)CCOCC2)cc1,0.2,-3.2,-0.7,-7.1,11.7,0.7
COc1ccc(CN=C2NN=C(c3cccc(OC)c3)CS2)cc1,-7.3,-22.7,-29.1,-12.8,19.7,1.1
Cc1cc(-c2nc(-c3ccc(C(C)(C)C)cc3)no2)no1,-21.4,x,-9.3,1.1,-0.2,1.0
NS(=O)(=O)c1ccc(NC(=O)COC(=O)COc2ccc(Br)cc2)cc1,1.0,9.9,-7.0,1.9,22.5,0.1
N#Cc1ccc(NC(=O)CN2CCN(c3ccccn3)CC2)cc1,21.4,0.7,-3.5,1.3,x,x
CCN(CC)C(=O)c1ccc2c(=O)n(CCOC)c(=S)[nH]c2c1,16.5,6.5,-4.0,0.1,-6.4,-1.1

# Seven entries from above, with bars between the fields:
smiles | D2 potentiator | CtBP-E1A inh | TRPV1 PAM | Six1-Eya2 blk | TRPML1 inh | TRPML1 ag
COc1ccc(NC(C)=O)cc1NC(C)C(=O)Nc1ccccc1F (configuration not stated) | -2.6 | -0.2 | 21.3 | 4.3 | 18.3 | -0.9
CCN(CC)C(=O)c1ccc2c(=O)n(CCOC)c(=S)[nH]c2c1 | 16.5 | 6.5 | -4.0 | 0.1 | -6.4 | -1.1
NS(=O)(=O)c1ccc(NC(=O)COC(=O)COc2ccc(Br)cc2)cc1 | 1.0 | 9.9 | -7.0 | 1.9 | 22.5 | 0.1
COc1ccc(C2(CNC(=O)c3cccs3)CCOCC2)cc1 | 0.2 | -3.2 | -0.7 | -7.1 | 11.7 | 0.7
N#Cc1ccc(NC(=O)CN2CCN(c3ccccn3)CC2)cc1 | 21.4 | 0.7 | -3.5 | 1.3 | x | x
COc1ccc(CN=C2NN=C(c3cccc(OC)c3)CS2)cc1 | -7.3 | -22.7 | -29.1 | -12.8 | 19.7 | 1.1
CC(CCc1ccccc1)NC(=O)C1CCN(c2nnc(-n3cccc3)s2)CC1 (configuration not stated) | -3.5 | -0.8 | -5.3 | -3.4 | 5.2 | -1.3

# The list continues:
SMILES,D2 potentiator,CtBP-E1A inh,TRPV1 PAM,Six1-Eya2 blk,TRPML1 inh,TRPML1 ag
O=C(O)C1CSC(c2ccccc2Cl)N1C(=O)c1ccc(Cl)cc1 (configuration not stated),2.4,-4.5,1.9,17.8,-18.1,0.8
Cc1ccc(Nc2ccc(-n3ccnc3)nn2)cc1C,-10.7,-1.0,22.5,-6.4,-6.8,-1.2
N#Cc1c(-c2ccccc2)nc(SCC(=O)Nc2ccccc2)[nH]c1=O,11.8,1.3,12.5,0.1,-9.1,1.1
O=C(NCCN1CCOCC1)c1ccc2c(c1)N(Cc1cccc(Cl)c1)C(=O)c1ccccc1S2(=O)=O,-12.0,-3.2,x,-9.8,-1.2,-0.1
COCCNC(=S)N(CCc1c(C)[nH]c2ccc(Cl)cc12)Cc1cccnc1,-13.5,x,-11.7,-16.4,1.5,-0.6
COC1CCN(C(=O)CC2C(=O)NCCN2CC2CCCCC2)CC1 (configuration not stated),-9.2,0.9,-1.6,1.3,-7.2,-0.2
CN(Cc1cccs1)C(=O)CCNS(=O)(=O)c1ccc(Br)cc1,1.1,8.4,0.1,1.9,6.9,-1.0
O=S(=O)(NCC(c1ccco1)N1CCOCC1)c1ccc(Cl)cc1 (configuration not stated),-3.0,-3.0,5.4,15.6,u,-0.6&1.0
O=C(O)c1cc(/C=C/c2ccc(N3CCOCC3)cc2)nc2ccccc12,-1.6,4.7,3.7,-3.5,-26.0,1.9
COc1ccc(C(=O)Nc2cc3c(cc2N2CCOCC2)n(C)c(=O)n3C)cc1OC,-7.7,2.9,10.8,1.7,1.2,-0.9
CCOc1ccc(NC(=S)N2CCN(CCN3C(=O)c4cccc5cccc(c45)C3=O)CC2)cc1,-1.5,x,3.1,-8.0,-9.4,1.4
CC(C)(C)Cc1nnc(NS(=O)(=O)Cc2ccccc2)s1,20.0,6.9,22.2,0.7,-2.2,1.1
O=C(c1ccccc1-c1nc(-c2ccc(Cl)cc2)no1)N1CCCC1,-7.5,94.7,-4.5,21.4,8.7,0.3
O=C(NCc1ccon1)C1CCC(=O)N(CCc2cccc(F)c2)C1 (configuration not stated),10.4,-1.5,3.2,6.7,-25.4,0.7
CN(C)S(=O)(=O)c1ccc(N2CCCC2)c(C(=O)Nc2cccc(F)c2)c1,-7.9,0.0,8.7,-0.8,13.1,1.3
C1CCC(Nc2nnnn2C2CCCCC2)CC1,-23.6,2.0,0.2,3.3,12.6,6.2
CC(C)(C)c1ccc(C(=O)N2CCN(Cc3ccccc3)CC2)cc1,-47.5,x,-3.7,-6.8,-2.7,0.3
O=C(c1ccc2nc(Cc3cccc(Cl)c3)oc2c1)N1CCC(CO)CC1,-7.1,-0.7,0.1,-2.7,5.4,0.1
NNC(=O)COc1ccc(F)cc1,-7.7,-14.4,-3.0,-7.3,21.5,-0.2
O=c1c2cc(N3CCOCC3)ccc2[nH]c(=S)n1CCCN1CCCCCC1,-50.0,-8.8,-12.1,-0.4,-9.6,0.3
OC[C@H]1O[C@@H](c2nc3ccc(-c4nc(-c5ccc(Br)cc5)no4)cc3[nH]2)C[C@@H]1O,-4.2,2.1,x,-8.8,x,0.2
CCn1c(SCC(=O)Nc2ccccc2OC)nc2ccccc2c1=O,-1.1,-6.8,-2.4,-6.1,-4.6,3.4
Cc1ccc(S(=O)(=O)N(C)CC(=O)Nc2cccc(C)n2)cc1,-5.4,4.0,8.0,-0.8,-14.2,0.6
Cc1cc(C)n2[nH]c(=O)c(N=Nc3cccc(C(F)(F)F)c3)c2n1,2.3,-2.2,3.1,7.7,-11.2,-1.7
Cn1c(NCc2ccccc2)cc(=O)n(C)c1=O,-18.4,31.9,21.3,28.2,-13.5,-0.5
CCc1nc2c(OCC(=O)c3ccc(F)cc3)cccn2c1N(C)C(=O)COc1ccccc1,-8.1,2.7,x,2.2,32.3,1.8
CC(C)(C)S(=O)(=O)N1Cc2cc(CO)cc(CCO)c2[C@@H]1CCO,x,-8.8,x,-6.6,-10.1,-0.8
O=C(COC(=O)CN1C(=O)c2ccccc2C1=O)NC1CCCC1,-8.7,18.3,-0.7,6.1,u,-1.6
CCN(CC(=O)NCc1cccs1)S(=O)(=O)c1ccc([N+](=O)[O-])cc1,-4.7,x,-5.7,3.6,34.1,-0.6
O=C(C1CCN(c2ncnc3c2nc2n3CCCCC2)CC1)N1CCN(c2ccc(F)cc2)CC1,-10.2,x,-2.1,u,32.3&-13.0,-0.9&1.7
COC(=O)c1ccc(NC(=O)C23CC4CC(C2)CC(n2cncn2)(C4)C3)cc1,-28.4,-1.6,1.8,3.1,-12.6,0.0
COCCn1c(-c2ccccc2)nc2ccccc21,-1.3,8.5,5.7,4.4,21.7,-1.2
CN(Cc1cccs1)C(=O)CCc1ccc(S(=O)(=O)N2CCOCC2)cc1,-17.6,-0.9,6.9,6.8,-21.0,0.6

# Reprinted from above (2 entries):
SMILES,D2 potentiator,CtBP-E1A inh,TRPV1 PAM,Six1-Eya2 blk,TRPML1 inh,TRPML1 ag
COCCn1c(-c2ccccc2)nc2ccccc21,-1.3,8.5,5.7,4.4,21.7,-1.2
CN(Cc1cccs1)C(=O)CCc1ccc(S(=O)(=O)N2CCOCC2)cc1,-17.6,-0.9,6.9,6.8,-21.0,0.6

# Rows are unselected; 0.95% or so of the library scored in one or more.
